# KCNQ2 inh = KCNQ2 potassium channel inhibitors, primary screen, cell-based, CHO-K1, FluxOR thallium flux, B-score (AID 2156); 20 min; active compounds read low; only compounds with negative scores are shown here; some inactives read as strong as hits; Potassium voltage-gated channel subfamily KQT member 2 (Rattus norvegicus), O88943; B-score at 10 µM; 1.1% of 310,000 active;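 active means fluorescence ratio B-score at most minus 3 library SDs, with starting brightness B-score within 2 library SDs, cut at about -5.5 in these data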
# Target sequence (O88943 whole entry, looked up): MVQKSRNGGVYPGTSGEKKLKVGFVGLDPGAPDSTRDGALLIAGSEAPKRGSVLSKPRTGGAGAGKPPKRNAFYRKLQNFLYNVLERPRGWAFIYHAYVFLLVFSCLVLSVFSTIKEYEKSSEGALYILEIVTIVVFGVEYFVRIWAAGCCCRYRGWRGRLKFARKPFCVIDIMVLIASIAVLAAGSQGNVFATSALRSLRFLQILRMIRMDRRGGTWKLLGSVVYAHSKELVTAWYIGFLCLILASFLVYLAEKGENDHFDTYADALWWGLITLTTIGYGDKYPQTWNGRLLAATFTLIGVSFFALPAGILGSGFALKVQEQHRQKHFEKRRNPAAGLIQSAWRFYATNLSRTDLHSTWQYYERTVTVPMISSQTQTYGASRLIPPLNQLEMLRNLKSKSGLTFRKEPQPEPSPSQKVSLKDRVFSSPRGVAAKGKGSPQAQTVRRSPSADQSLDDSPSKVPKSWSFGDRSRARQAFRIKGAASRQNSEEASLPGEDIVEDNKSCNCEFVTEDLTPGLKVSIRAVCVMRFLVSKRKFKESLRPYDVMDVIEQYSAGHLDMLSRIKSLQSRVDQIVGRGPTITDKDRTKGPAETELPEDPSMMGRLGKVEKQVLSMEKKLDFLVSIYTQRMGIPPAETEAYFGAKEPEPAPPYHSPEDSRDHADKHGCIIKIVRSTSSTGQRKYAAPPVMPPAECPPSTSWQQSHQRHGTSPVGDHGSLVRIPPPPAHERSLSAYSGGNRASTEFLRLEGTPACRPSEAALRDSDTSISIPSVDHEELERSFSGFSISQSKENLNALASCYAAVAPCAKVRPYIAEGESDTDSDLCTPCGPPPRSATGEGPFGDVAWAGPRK
# KCNQ2 inh baseline = further read-out of KCNQ2 inh, marked with its call; B-score; measured here: initial fluorescence intensity artifact check;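 brightness before thallium and not channel activity; 0 = typical well and far values either way flag optical interference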
# An asterisk follows results filed as active; i = inactive.
Compound	KCNQ2 inh	KCNQ2 inh baseline
Cc1nc([N+](=O)[O-])cn1CC(=O)c1ccc(OC(F)(F)F)cc1	i	0.78
CC(C)CC(=O)NC(c1cccs1)c1ccc2cccnc2c1O (stereo not drawn)	i	-0.9
Cc1ccc(CNC(=O)COC(=O)Cc2ccc(-c3ccccc3)cc2)cc1	i	0.19
CCCNC(=O)C1CCC(CNS(=O)(=O)c2ccc3c(c2)CC(C)N3C(C)=O)CC1 (stereo not drawn)	i	0.07
CC(=O)Nc1c(C(=O)C2CC2)oc2ccccc12	i	-1.2
Brc1ccc(-c2nc3ncccn3c2NC2CCCCC2)o1	i	-0.3
Cc1ccc(C(=O)NNc2ncnc3c2cnn3C)cc1	i	-0.05
CCN(CC)Cc1cc(NC2=NS(=O)(=O)c3ccccc32)ccc1OC(=O)C(C)C	i	-0.03
CCN(CC)C(=O)c1ccc(COc2ccc(Cl)c(C)c2)o1	i	-2
O=[N+]([O-])c1cc(/C=N/OCc2c(Cl)cccc2Cl)ccc1N1CCOCC1	i	-0.03
COC(=O)c1c(NC(=O)CSc2nnc(-c3ccco3)n2Cc2ccccc2)sc(C)c1C	i	0.96
Cc1ccccc1N(C(=O)Cc1c[nH]c2ccccc12)C(C(=O)NC1CCCCC1)c1ccco1 (stereo not drawn)	i	-0.66
Cc1cc(NC(=O)C2C3C(=O)N(CCC(C)C)C(C(=O)NCc4ccccc4)C34C=CC2(C)O4)no1 (stereo not drawn)	i	-0.45
C=CCSc1ncc(-c2ccccc2)cn1	i	-0.02
Cc1cc(C(=O)N/N=C2\CC(=O)CC(C)(C)C2)c2ccccc2n1	i	-1.2
COc1cc(/C=N/NC(=Nc2ccc(C)cc2)c2nc3ccccc3s2)ccc1O	i	1.4
O=C(Cc1n[nH]c(=O)c2ccccc12)Nc1ccc(-c2nnc3n2CCCCC3)cc1	i	-0.1
COc1ccccc1/C=[N+](\[O-])C1SC(=S)N(C)C1(C)C (stereo not drawn)	i	1.8
CCOc1c(Cl)cc(/C=C/C(=O)N(CC)CC(=O)NCc2cccs2)cc1OC	i	-1.7
Nc1ccc(-c2nc3ccc(C(=O)O)cc3s2)cc1	i	2
Cc1cccc(C)c1N1CCN(C(=O)Cn2cncn2)CC1	i	0.02
Fc1ccc(N2N=C(c3cccs3)CC2c2ccccc2)cc1 (stereo not drawn)	i	-1.9
Cc1cc(C)c(OCC(O)CN2CCN(C(=O)c3ccccc3)CC2)c(C)c1 (stereo not drawn)	i	-0.02
COc1ccccc1NC(=O)COC(=O)c1ccccc1C(=O)N1CCN(c2ccccc2)CC1	i	-0.43
CCn1c(COc2c(C)cccc2C)nnc1SCc1nc2ccccc2c(=O)[nH]1	i	-0.56
Clc1cccc(CN2CCc3c([nH]c4ccccc34)C2)c1Cl	i	-0.88
O=C(NC1CCCCC1)C(c1cccnc1)N(C(=O)c1csnn1)c1ccccc1F (stereo not drawn)	i	0.04
COc1ccc(N2CCN(C(=O)c3cc4c(C)nc5ccccc5c4o3)CC2)cc1	i	-1.1
CCO[C@H]1OC(C(=O)N2CCOCC2)=C[C@@H](c2coc3ccccc3c2=O)[C@@H]1CCCO	i	0.67
C=CCSc1nnc(-c2nnc(SCC=C)n2-c2ccccc2)n1-c1ccccc1	i	-0.11
COc1ccc2[nH]cc(/C=N/NS(=O)(=O)c3ccc(C)cc3)c2c1	i	-0.03
COc1ccc(S(=O)(=O)NC(CC(=O)O)c2ccco2)cc1 (stereo not drawn)	i	2.5
Cc1cc(Cl)c2oc(C(=O)N3CCN(c4cccc(C)n4)CC3)c(C)c2c1	i	0.02
CC(C)CN(C(=O)CN1CCCCCC1)c1c(N)n(CC(C)C)c(=O)[nH]c1=O	i	1.2
Cc1cccc(Cn2c(N(C)Cc3ccccc3)nc3c2c(=O)[nH]c(=O)n3C)c1	i	-1.1
Cc1cc(NC(=S)N(Cc2cccc(Br)c2)CC2CCC(C(=O)O)CC2)ccc1Cl (stereo not drawn)	i	-0.86
C[C@@H](C(=O)NC1CCN(Cc2ccccc2)CC1)N1C(=O)N2CCc3c([nH]c4ccccc34)[C@@]2(C)C1=O	i	-0.56
COc1ccc(COC(=O)N/N=C(\C)CC(=O)Nc2ccc(Cl)cc2)cc1	i	0.03
CC1(C)CC(=O)C(/C=N/n2c(C(F)(F)F)nc3ccccc3c2=O)=C(O)C1	i	0.21
Cc1ccc(S(=O)(=O)N2CCC(=O)N(C(COCc3ccc(C(F)(F)F)cc3)C(C)C)CC2)cc1 (stereo not drawn)	i	-3
CC(=O)N/C(=N\c1nc(C)cc(C)n1)Nc1ccccc1Cl	i	1.5
NC(=O)c1nsc(C(=O)N(Cc2cccnc2)C(C(=O)NCc2ccccc2)c2ccc(O)cc2)c1N (stereo not drawn)	i	0.6
N/C(=N\OC(=O)Cc1ccccc1)c1ccncc1	i	-1.9
COc1ccc(-n2c3c(cc(C#N)c2=O)C(=O)CCC3)cc1	i	1.6
Nc1ccc(Nc2nc(-c3cc4ccccc4oc3=O)cs2)cc1	i	1.5
COc1cc2[nH]c(C(=O)N(C)Cc3ccccc3)cc2c(OC)c1OC	i	0.86
Nc1ccc(S(=O)(=O)Nc2nccc(/C=C/c3ccc([N+](=O)[O-])cc3)n2)cc1	i	0.88
O=C(CN1C(=O)CSc2ccccc21)NC1CCCC1	i	-0.21

# Remaining list, next part
# Values run as follows: KCNQ2 inh	KCNQ2 inh baseline
> Cc1oc(=O)c(NC(=O)c2ccccc2)cc1C(N)=O
    i	-1.7
> CC(C)(C)n1nc2c(c1NC(=O)c1ccccc1F)CS(=O)C2 (stereo not drawn)
    i	-0.02
> COc1ccc(NC2CS(=O)(=O)CC2NCc2ccccc2)cc1 (stereo not drawn)
    i	0.96
> CCC(C)(C)n1nnnc1C(c1cc2ccc(OC)cc2[nH]c1=O)N1CCc2ccccc21 (stereo not drawn)
    -6.1*	-0.36*
> Cc1cc(NC(=O)CNCC(c2ccccc2)N(C)C)c([N+](=O)[O-])cc1C (stereo not drawn)
    i	-0.1
> CCOP(=O)(c1ccc(N(C)C)cc1)C(O)c1ccncc1 (stereo not drawn)
    i	-0.14
> Cn1c(Cc2cccs2)nnc1SCC(=O)N1CCCc2ccccc21
    i	0.22
> COc1ccc(S(=O)(=O)Nc2nnc(CC(C)(C)C)s2)cc1
    i	-0.08
> CNc1nc(Sc2ccccc2)cc(C(F)(F)F)n1
    i	-1.4
> N#CC1=C2SCC(O)(c3ccccc3)N2C(=O)CC1c1ccccc1F (stereo not drawn)
    i	2
> COc1ccc(CN(C)CC(O)COc2ccc(C(=O)c3ccccc3)cc2)c(OC)c1OC (stereo not drawn)
    i	-0.7
> Cc1c(C)c2ccc(OCC(=O)N[C@@H](Cc3ccccc3)C(=O)O)cc2oc1=O
    i	-0.37
> O=C(CN1CCOCC1)Nc1ccc(OC(F)(F)F)cc1
    i	-0.2
> CCCOc1ccccc1Cn1c(=O)oc2ccccc21
    i	0.59
> O=c1c(-c2ccc(O)cc2)coc2c(C3O[C@H](CO)[C@@H](O)[C@H](O)[C@H]3O)c(O)ccc12 (stereo partly drawn)
    i	-0.41
> CCc1ccc(NC(=O)CSC2=C(C#N)C(c3ccco3)C3=C(CCCC3=O)N2)cc1 (stereo not drawn)
    i	0.19
> Cc1nn(C)cc1CN(C)C(=O)c1cc(COc2ccc(F)cc2F)on1
    i	0.02
> Cc1ccc(C)c(N2CCN(S(=O)(=O)CC34CCC(CC3=O)C4(C)C)CC2)c1 (stereo not drawn)
    i	0.3
> Cc1cccc(CC2SC(N)=NC2=O)c1 (stereo not drawn)
    i	-0.44
> C=CCn1c(SCC(=O)Nc2nnc(CC)s2)nnc1-c1ccncc1
    i	-1.2
> Cc1c(Cl)ccc2c1NC(=O)[C@]21N[C@@H](CCC(N)=O)[C@H]2C(=O)N(c3ccc(F)cc3)C(=O)[C@H]21
    i	-0.08
> CCOC(=O)/C(C#N)=C\c1cn(C)c2ccccc12
    i	-0.74
> Cc1ccc(C(=O)N2CCN(C(=O)CN3CCOCC3)C2)cc1
    i	0.94
> COc1ccc(CCN(C)C(=O)Cn2c(=O)oc3ccccc32)cc1OC
    i	2.7
> COc1ccc(/C=C/C=C2\NC(=S)NC2=O)cc1
    i	0.39
> Cc1ccsc1/C=N/NC(=O)C1CC(=O)N(c2ccccc2)C1 (stereo not drawn)
    i	0.68
> Cc1noc(C)c1C(c1ccccc1)c1ccccc1
    i	0.09
> CCC(=O)c1ccc2c(c1)OCCO2
    i	0.56
> O=C(NCCc1ccccc1)c1cccc(N2CCCC2=O)c1
    i	-0.17
> CN(CCOc1ccc(Cl)cc1)C(=O)c1cc(-c2ccco2)nc2ccccc12
    -13*	0.53*
> O=C(NC1CC1)c1cc(-c2ccco2)nc2ccccc12
    i	0.33
> Cc1ccc(-c2csc3nc(-c4ccncc4)[nH]c(=O)c23)cc1
    i	0.24
> CC1CCc2c(sc(NC(=O)COC(=O)c3ccc(O)cc3)c2C#N)C1 (stereo not drawn)
    i	-0.69
> COc1ccc(Nc2nc(C)cc(C)c2C(N)=O)cc1
    i	-1.4
> Cc1ccccc1CN1CCN(C(=O)c2cc(-c3ccncc3)nc3ccccc23)CC1
    i	0.44
> Fc1ccc(-n2cc(CNCCc3ccccn3)c(-c3ccccc3Cl)n2)cc1
    i	0.77
> COc1ccc(-n2c(Cc3cccn3C)nnc2SCC(=O)Nc2ccc3c(c2)OCCO3)cc1
    i	1.1
> NN=C(c1cccc([N+](=O)[O-])c1)c1cccc([N+](=O)[O-])c1
    i	0.07
> O=C(COc1ncnc2ccc(Br)cc12)NCc1ccc2c(c1)OCO2
    i	0.42
> CCCN1CCN(C(=S)Nc2ccc(SC(F)F)cc2)CC1
    i	0.45
> Cc1cccc(C(=O)NNS(=O)(=O)c2ccccc2)c1O
    i	-0.83
> CCOC(=O)c1c(NC(=O)Cn2cnc3scc(-c4ccc(C)cc4)c3c2=O)sc(C)c1C
    i	0.16
> Cn1c(=O)c2c(nc(NCCO)n2CCc2ccccc2)n(C)c1=O
    i	1.3
> CCOc1ccc(-c2nn(-c3ccccc3)cc2/C=C2\SC(=S)N(C3CCS(=O)(=O)C3)C2=O)cc1 (stereo not drawn)
    i	0.64
> Cc1cc(NS(=O)(=O)c2ccccc2)cc(Cl)c1O
    i	0.63
> CCCCOC(=O)C(C)Sc1n[nH]c(=O)[nH]c1=O (stereo not drawn)
    i	-0.5
> CC(NC(=O)COC(=O)c1ccc([N+](=O)[O-])s1)c1ccccc1 (stereo not drawn)
    i	-0.32
> CCC(OC(=O)c1cccs1)C(=O)NCc1ccc2c(c1)OCO2 (stereo not drawn)
    i	-1.2
> CC(C)CNS(=O)(=O)c1cc(C(=O)OCC(=O)N2CCOCC2)c(Cl)cc1Cl
    i	0.58
> CCN1C(=O)C(CC(=O)Nc2ccc(C)cc2C)Nc2cc(S(=O)(=O)N(C)C)ccc21 (stereo not drawn)
    i	-1.1
> Cc1ccc(CN=Cc2[nH]c3ccc(Br)c(Cl)c3c2O)cc1
    i	2.1
> Cc1nc(N2CCN(Cc3ccc4c(c3)OCO4)CC2)c2cc(-c3ccccc3)sc2n1
    -6.4*	-0.28*
> COc1ccc(S(=O)(=O)NNC(=O)C23CC4CC(CC(C4)C2)C3)cc1[N+](=O)[O-]
    i	-0.04
> O=C1N(c2ccccc2)C[C@@H]2C[C@@H](c3cccc4c3OCO4)N3CCC[C@@]123
    i	-0.02
> OCCCc1nc2n(n1)C(c1cccs1)C=C(c1ccc(Br)cc1)N2 (stereo not drawn)
    i	62
> O=C1CC(N2CCN(c3ccc(F)cc3)CC2)C(=O)N1c1ccc(F)cc1 (stereo not drawn)
    i	0.27
> C#CCOCCOCCOCCNc1nc(N2CCN(C(=O)C([C@@H](C)CC)n3cc(C(N)Cc4ccc(O)cc4)nn3)CC2)nc(N2CCN(C(=O)[C@H](CCC(=O)O)n3cc(C(N)CO)nn3)CC2)n1 (stereo partly drawn)
    i	1.4
> CCOC(=O)N1CCC(NC(=O)C2CCCN(Cc3nc(-c4ccc(CC)cc4)oc3C)C2)CC1 (stereo not drawn)
    i	-0.47
> CC(=O)N1c2ccccc2C(C)(C)C2CCC(C)CC21 (stereo not drawn)
    i	-0.76
> Cc1ccc(C(=O)NC(=S)NNC(=O)CCN2CCOCC2)cc1
    i	-1.1
> COc1cccc(-c2nn(C)c3sc(C(=O)NCCCN(C)Cc4ccccc4)cc23)c1
    i	-0.06
> Cc1ccc(CNC(=O)COC(=O)c2cnccn2)cc1
    i	0.08

# Structures above that have an NH in an aromatic ring, in the order listed:
# Values run as follows: KCNQ2 inh	KCNQ2 inh baseline
> Cc1ccccc1N(C(=O)Cc1c[nH]c2ccccc12)C(C(=O)NC1CCCCC1)c1ccco1 (stereo not drawn)
    i	-0.66
> O=C(Cc1n[nH]c(=O)c2ccccc12)Nc1ccc(-c2nnc3n2CCCCC3)cc1
    i	-0.1
> CCn1c(COc2c(C)cccc2C)nnc1SCc1nc2ccccc2c(=O)[nH]1
    i	-0.56
> Clc1cccc(CN2CCc3c([nH]c4ccccc34)C2)c1Cl
    i	-0.88
> COc1ccc2[nH]cc(/C=N/NS(=O)(=O)c3ccc(C)cc3)c2c1
    i	-0.03
> CC(C)CN(C(=O)CN1CCCCCC1)c1c(N)n(CC(C)C)c(=O)[nH]c1=O
    i	1.2
> Cc1cccc(Cn2c(N(C)Cc3ccccc3)nc3c2c(=O)[nH]c(=O)n3C)c1
    i	-1.1
> C[C@@H](C(=O)NC1CCN(Cc2ccccc2)CC1)N1C(=O)N2CCc3c([nH]c4ccccc34)[C@@]2(C)C1=O
    i	-0.56
> COc1cc2[nH]c(C(=O)N(C)Cc3ccccc3)cc2c(OC)c1OC
    i	0.86
> CCC(C)(C)n1nnnc1C(c1cc2ccc(OC)cc2[nH]c1=O)N1CCc2ccccc21 (stereo not drawn)
    -6.1*	-0.36*
> Cc1ccc(-c2csc3nc(-c4ccncc4)[nH]c(=O)c23)cc1
    i	0.24
> CCCCOC(=O)C(C)Sc1n[nH]c(=O)[nH]c1=O (stereo not drawn)
    i	-0.5
> Cc1ccc(CN=Cc2[nH]c3ccc(Br)c(Cl)c3c2O)cc1
    i	2.1

# These rows are one share of the data (hit frequency here may not be typical).
